# Six1-Eya2 inh: qHTS Assay for Inhibitors of the Six1/Eya2 Interaction; Homeobox protein SIX1 (Homo sapiens) + Protein phosphatase EYA2 (Homo sapiens), …; AlphaScreen GST-Six1/His-Eya2 binding, biochemical; hits give low values; control for the full effect not named in the record; activity change, % (concentration not given with the values); 360,000 tested, 0.56% active; AID 651725, 2012; in the data active = activity change below about -65%; inconclusive = about -30% to -65%; inactive = above about -30%; also: % is scaled to controls: 0 for no effect and ±100 for the full control effect
#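 Homogeneous AlphaScreen proximity assay pairing GST-Six1 with His-tagged Eya2 (added as 5X mix: 250 nM and 500 nM) in 50 mM Tris pH 8.0, 300 mM NaCl, 1 mM TCEP. Glutathione donor and nickel acceptor beads; 1 h, 37 °C, dark.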
# CtBP-E1A inh: qHTS Assay for Inhibitors of the CtBP/E1A Interaction | CtBP / adenovirus E1A interaction (AlphaScreen) | AlphaScreen GST-E1A/His-CtBP binding, 1536-well; hits give low values; control for the full effect not named in the record | activity change, % (test concentration not listed) | 340,000 tested, 0.49% active; in the data active means activity change below about -65%; inconclusive means about -30% to -65%; inactive means above about -30%; also: % is scaled to controls: 0 for no effect and ±100 for the full control effect; compound concentration not given in the record
#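 In 5 uL wells, 23 nL compound meets equimolar GST-E1A and His-CtBP (5X stock 125 nM each) for 2 h, 37 °C. Beads (5X, 50 ug/mL) then 1 h, 37 °C, dark.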
# D2 agonist: Beta-Arrestin HTS for Positive Allosteric Modulators of the Human D2 Dopamine Receptor: Agonists; AID 624465, 2012; D(2) dopamine receptor (Homo sapiens), P14416; DiscoveRx PathHunter D2 beta-arrestin, luminescence, 90 min; 100% = 57 uM dopamine signal; 360,000 tested, 0.084% active; activation, % (concentration not given with the values); in the data active = activation above about 40%; inconclusive = about 15% to 40%; inactive = below about 15%; also: compound concentration not given in the record; the text of the record calls up to 30% inactive
# Target sequence (P14416 whole entry, looked up): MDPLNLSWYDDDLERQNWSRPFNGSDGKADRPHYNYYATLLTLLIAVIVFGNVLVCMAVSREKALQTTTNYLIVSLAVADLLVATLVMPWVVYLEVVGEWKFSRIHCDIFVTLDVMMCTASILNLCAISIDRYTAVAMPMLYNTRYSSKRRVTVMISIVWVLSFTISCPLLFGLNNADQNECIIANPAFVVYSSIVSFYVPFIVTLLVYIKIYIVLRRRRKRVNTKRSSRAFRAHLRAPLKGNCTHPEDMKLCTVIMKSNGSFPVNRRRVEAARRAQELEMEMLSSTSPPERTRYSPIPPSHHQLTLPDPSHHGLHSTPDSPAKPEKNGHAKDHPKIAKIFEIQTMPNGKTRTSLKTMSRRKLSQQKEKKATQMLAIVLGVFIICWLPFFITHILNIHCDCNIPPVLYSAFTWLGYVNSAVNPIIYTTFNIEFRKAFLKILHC
#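 Agonist mode: compounds alone added to overnight-plated D2 PathHunter cells for 90 min at 37 C, with 57 uM final dopamine (EC100) defining full response. Beta-arrestin recruitment detected by chemiluminescent reagent, read after 1 h at ambient temperature.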
# TRPML1 ag: qHTS for Agonists of the Human Mucolipin Transient Receptor Potential 1 (TRPML1) | TRPML1-expressing cells, Ca2+ dye fluorescence, FDSS; host cell line not named in the record; reference of the full effect not given here | activation, % (concentration not given with the values) | 410,000 tested, 0.12% active | AID 624414, 2012; in the data active = activation above about 50%; inconclusive = about 30% to 50%; inactive = below about 30%; also: 0% is about no effect; the text of the record puts the active cut at 80%
# Target sequence (Q9GZU1 whole entry, looked up): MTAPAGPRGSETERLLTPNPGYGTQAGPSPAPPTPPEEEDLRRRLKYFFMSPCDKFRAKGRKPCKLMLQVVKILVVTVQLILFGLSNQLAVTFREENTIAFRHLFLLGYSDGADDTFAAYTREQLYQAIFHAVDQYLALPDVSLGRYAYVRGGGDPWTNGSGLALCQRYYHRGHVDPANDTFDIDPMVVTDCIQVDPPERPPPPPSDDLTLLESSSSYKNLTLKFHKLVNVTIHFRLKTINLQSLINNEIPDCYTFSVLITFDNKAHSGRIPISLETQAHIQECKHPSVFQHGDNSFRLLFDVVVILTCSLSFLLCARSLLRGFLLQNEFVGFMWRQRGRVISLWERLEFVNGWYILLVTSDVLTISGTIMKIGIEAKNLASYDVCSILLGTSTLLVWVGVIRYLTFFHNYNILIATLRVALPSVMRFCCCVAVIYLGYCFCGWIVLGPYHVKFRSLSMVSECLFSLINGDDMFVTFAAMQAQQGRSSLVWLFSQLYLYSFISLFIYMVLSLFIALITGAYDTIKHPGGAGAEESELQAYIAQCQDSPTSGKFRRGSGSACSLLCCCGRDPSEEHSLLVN
#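 Agonist activity was taken from a 110 s kinetic Ca2+ dye read on the FDSS after pinning compounds onto TRPML1-DL cells. The cells were seeded at 1,500/well with Tet inducer, incubated about 16 h, then dye-loaded at room temperature.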
# PINK1 modulator: A Quantitative High throughput Screen to Identify Chemical Modulators of PINK1 Expression; PINK1 immunofluorescence, high-content cytometry, 24 h; Potency, µM (doses to about 76.6 µM), for inactives: at the top dose activation (PINK1 increase), hits mostly activators; 410,000 tested, 0.2% active; AID 624263, 2012; active = well fitted activation curve with a large enough effect; inconclusive = small, poorly fitted or top-dose-only effect; inactive = flat fitted curve, though single readings scatter; cell line not stated here;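 also: potency is read from the fitted curve at half-maximal effect; % of control where 0% means no effect; nearly all actives have a fitted effect of over 65% in size; a mitochondrial uncoupler was the plate control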
#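 Stable cell line treated 24 h with compounds at 5 concentrations (CCCP controls), then fixed and immunostained for PINK1 plus nuclear and cell stains; PINK1 immunofluorescence quantified by laser-scanning microplate cytometry.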
# TRPML1 inh: qHTS for Inhibitors of the Human Mucolipin Transient Receptor Potential 1 (TRPML1) | Mucolipin-1 (Homo sapiens), Q9GZU1 | TRPML1-inducible cells, Ca2+ dye fluorescence, FDSS; hits give low values; inhibition of EC80 agonist-evoked calcium signal | activity change, negative = inhibition, % (test concentration not listed) | 390,000 tested, 0.02% active | AID 624415, 2012; in the data active means activity change below about -50%; inconclusive means about -30% to -50%; inactive means above about -30%;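 also: stimulus is agonist 54-4 at its EC80 concentration; % is scaled to controls: 0 for no effect and ±100 for the full control effect; compound concentration not given in the record; the text of the record puts the active cut at -80%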
#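 Tet-induced TRPML1-DL cells loaded with Ca8 no-wash calcium dye were read kinetically on FDSS. Compound addition was followed by EC80 agonist 54-4 (4 uM final); inhibition was read over 110 s.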
# * = called active by the depositor; ? = inconclusive; . = not tested or not shown; [ ] = another dose, or the depositor's remark.
SMILES,Six1-Eya2 inh,CtBP-E1A inh,D2 agonist,TRPML1 ag,PINK1 modulator,TRPML1 inh
Cc1cc(C=O)c(C)n1-c1ccc(N2CCOCC2)c([N+](=O)[O-])c1,-6,-15,-7.0,0.2,-0.7%,28
Cc1cc([N+](=O)[O-])nn1CC(=O)NCc1ccc(Cl)cc1,0,5,1.3,3.5,0.0%,-1
Cc1ccc(C)c(NS(=O)(=O)c2cc3c(cc2Cl)NC(=O)CO3)c1,.,.,.,-0.7,-0.2%,0
O=C1OCCC1Sc1nc2ccccc2n1-c1ccccc1 (stereo not given),4,6,-1.1,0.9,-1.0%,-14
COC(=O)c1cc2c(-c3ccccc3)cc3ccccn3c-2c1C(=O)OC,?,?,-6.3,0.0,5.8%,22
O=C(Nc1ccc(Oc2ccccc2)nc1)C1CCCCN1Cc1cccc(OCCO)c1 (stereo not given),-1,0,5.4,-0.6,0.3%,-14
CC(=O)C1=C(C)NC(=S)NC1c1cc([N+](=O)[O-])ccc1O (stereo not given),-19,.,-8.3,-0.1,0.4%,-3
CCCOc1ccc(CC(=O)N/N=C\c2ccc(F)cc2)cc1,22,-14,8.3,2.1,7.3%,13
Cc1cc(C)c2cc(C#N)c(SCC(=O)Nc3ccc4c(c3)OCO4)nc2c1,4,3,-3.8,.,16%,.
O=C(Cc1ccc(Cl)cc1)Nc1ccc2oc(-c3ccccc3F)nc2c1,.,.,.,1.3,4.8%,-17
CN(CC(=O)NC1CC(C)(C)NC(C)(C)C1)S(=O)(=O)c1ccc(Br)cc1,3,1,7.3,0.9,1.9%,6
N=c1sccn1CC(=O)NCCc1ccc(Cl)cc1,0,4,-3.3,0.0,-2.1%,14
COC(=O)c1cc(COc2ccc3c4c(c(=O)oc3c2)CCCC4)c(C)o1,1,2,0.0,-0.4,.,-6
COc1ccc(OC(C)C(=O)Nc2cccnc2)cc1 (stereo not given),4,8,-3.1,0.3,.,4
c1ccc(Cn2nnc3c(Nc4ccc5c(c4)OCO5)nc(C4CC4)nc32)cc1,-10,-3,0.4,0.8,?,11
S=c1oc(-c2ccncc2)nn1CCc1ccncc1,1,-2,-0.4,-0.8,0.2%,-11
O=C(c1[nH]c2ccccc2c1Sc1ccc(Cl)cc1)N1CCCCC1,.,.,.,1.2,0.0%,28
COc1ccc(NC(=O)CSc2nnc(CNc3ccc(F)cc3)o2)c(OC)c1,0,-1,0.5,-0.6,-0.7%,-6
O=C(CSc1nc2ccccc2c(=O)n1-c1ccc(F)c(Cl)c1)Nc1ccc2c(c1)CCC2,1,3,-3.0,-0.4,2.5%,-3
CC(C)c1ccc(NC(=O)C2CCCN(S(=O)(=O)c3cccnc3)C2)cc1 (stereo not given),14,0,1.0,0.7,5.6%,3

# Retrieved by compound from the entries so far, 4 records:
SMILES,Six1-Eya2 inh,CtBP-E1A inh,D2 agonist,TRPML1 ag,PINK1 modulator,TRPML1 inh
CCCOc1ccc(CC(=O)N/N=C\c2ccc(F)cc2)cc1,22,-14,8.3,2.1,7.3%,13
CC(C)c1ccc(NC(=O)C2CCCN(S(=O)(=O)c3cccnc3)C2)cc1 (stereo not given),14,0,1.0,0.7,5.6%,3
O=C(Nc1ccc(Oc2ccccc2)nc1)C1CCCCN1Cc1cccc(OCCO)c1 (stereo not given),-1,0,5.4,-0.6,0.3%,-14
CN(CC(=O)NC1CC(C)(C)NC(C)(C)C1)S(=O)(=O)c1ccc(Br)cc1,3,1,7.3,0.9,1.9%,6

# Remaining list, next part:
SMILES,Six1-Eya2 inh,CtBP-E1A inh,D2 agonist,TRPML1 ag,PINK1 modulator,TRPML1 inh
COc1cc([N+](=O)[O-])ccc1NC(=O)NNC(=O)C(C)Oc1ccc(F)cc1F (stereo not given),0,8,-5.6,-0.2,1.2%,11
CC1(C)CC(=O)C=C(c2cccc(OC(=O)c3ccc(Br)cc3)c2)C1=O,-21,-7,-8.7,0.0,0.3%,19
COc1ccc(C(=O)OCC(=O)NC(C)(C)C)cc1[N+](=O)[O-],0,10,-0.3,-0.7,-0.7%,-5
COc1ccccc1CN1CC(C(=O)N(C)Cc2[nH]c3ccccc3c2C)CCC1=O (stereo not given),-9,-3,-1.5,0.0,-0.5%,1
Nc1cc(N)nc(SCC(=O)NC(=O)NC2CCCC2)n1,12,-2,-0.2,0.0,0.2%,-10
Cc1ccc(NC(=O)/C=C/c2ccc([N+](=O)[O-])s2)cc1,1,-27,3.7,-0.2,?,-4
Cc1cc(C(=O)OCC(=O)NC(C)C)c2ccccc2n1,1,1,-4.7,.,-0.4%,.
Cc1cc(C(=O)NNC(=O)c2ccccc2[N+](=O)[O-])c(C)o1,8,-3,-1.1,-0.3,0.2%,1
COc1cccc(/C=N/N=C(\N)c2nonc2N)c1O,4,.,-0.2,-0.1,2.8%,-2
COc1nccnc1NS(=O)(=O)c1ccc(NC(=S)NC(=O)c2cccnc2)cc1,0,.,-8.0,3.0,-0.4%,41
CCn1nnnc1NCc1ccc(SC)cc1,-2,4,-6.4,-0.3,4.2%,4
CC(C)C(=O)Nc1ccc(NC(=O)c2ccccn2)cn1,-1,-2,-0.9,0.8,1.1%,-4
CCOC(=O)C1(C)CCCN(C(=O)c2cc(F)cc(F)c2)C1 (stereo not given),1,4,-1.3,-0.1,-0.3%,.
Cc1ccc(C(=O)Nc2cccc(S(=O)(=O)N3CCCC3)c2)o1,-3,-15,1.8,-0.2,-0.5%,-9
Cc1ccc(C(=O)NCc2ccc(Cl)cc2)cc1S(=O)(=O)N1CCCCC1,8,0,-1.7,2.2,7.4%,16
CCC1CN(C(=O)N2CCC(C(=O)NCCN(CC)CC)CC2)c2ccccc2O1 (stereo not given),.,.,.,3.0,-0.8%,-5
CC(NC(=O)Cc1ccc(S(=O)(=O)N2CCCCC2)cc1)c1ccccc1 (stereo not given),4,5,5.8,0.9,0.4%,-18
CCc1c(C)nc2cc(-c3ccc(OC)c(OC)c3)nn2c1N1CCC(C)CC1,-2,11,-4.7,0.2,1.0%,-24
CC(=O)Oc1oc(-c2ccccc2)nc1C=Nc1ccc(N(C)C)cc1,4,-13,-3.4,0.9,1.3%,-12
Cc1cc(C)n(-c2nc3c(c(=O)[nH]c(=O)n3C)n2C)n1,8,2,-6.2,-0.3,-0.8%,-8
O=C(NCc1ccccc1F)C1CCCN1C(=O)Nc1ccccc1 (stereo not given),-3,.,-4.5,-0.6,-1.0%,-17
CC1(C)C2CCC1(C)C(OC(=O)C[n+]1ccccc1N)C2 (stereo not given),2,9,-0.4,.,0.9%,.
Cc1nc(C)c(-c2ccc(SCc3ccc([N+](=O)[O-])cc3)nn2)s1,-17,?,7.7,2.0,-0.4%,71
CCc1nnc(NC(=O)CCC(=O)NCc2ccc(C)cc2)s1,9,-8,3.1,0.0,1.5%,5
O=C(O)CC1(O)C(=O)N(Cc2ccccc2)c2ccccc21 (stereo not given),9,0,1.7,-0.5,-1.2%,24
CCOc1ccc(C(C)C)cc1S(=O)(=O)Nc1ccc(Cl)cn1,1,2,-2.5,4.5,-0.7%,-12
O=C(CCS(=O)(=O)c1ccc(Br)cc1)NCCc1ccccc1,-13,2,-3.5,-0.9,-1.9%,16
COc1ccc(-c2noc(C(C)NC(=O)c3ccco3)n2)cc1OC (stereo not given),-7,1,4.3,0.1,0.1%,32
CCc1nc2c(OCc3ccccc3C(=O)OC)cccn2c1N(C)C(=O)c1cccs1,-13,-4,-3.6,1.0,1.6%,-9
COc1ccc(CNC2CCCCC2C)c(OC)c1 (stereo not given),0,-1,-0.8,-0.1,1.1%[38.3 µM],6
COc1ccccc1C(=O)N(Cc1ccco1)C1CCS(=O)(=O)C1 (stereo not given),2,9,0.4,-0.3,1.2%,-21
O=C(NCc1ccccc1Br)c1ccc2nc(N3CCCCC3)sc2c1,.,.,.,-0.8,0.2%,-1
O=C1c2ccc(-c3ccc4c(c3)C(=O)N(CCO)C4=O)cc2C(=O)N1CCO,0,.,-0.6,-0.5,1.3%,-3
Nc1cc(Cl)ccc1C(=O)OCC(=O)NCC1CCCO1 (stereo not given),-1,0,-0.3,-0.9,2.6%,-1
CCn1cc(C(=O)O)c(=O)c2cc(F)c(N/N=C/c3ccccc3)cc21,?,-74*,-2.3,1.4,?,-6
Cc1c(O)ccc(/C(Cc2ccc3ccccc3n2)=N\N)c1O,-8,.,-3.9,0.3,0.1%,4
Cc1nn(Cc2c(Cl)cccc2Cl)c(Cl)c1/C=N/NC(=O)c1cccnc1,18,4,-5.4,1.6,5.6%,32
CCOc1ccc2nc(SCC(=O)NCc3ccc(S(N)(=O)=O)cc3)sc2c1,5,2,-2.0,0.2,1.4%,-8
O=S(=O)(N1CCOCC1)N1CCCN(S(=O)(=O)N2CCOCC2)CC1,5,13,3.8,0.8,0.1%,-19
Cn1cnc(S(=O)(=O)Nc2ccc(OC(F)(F)F)cc2)c1,-2,-6,-2.3,0.4,-0.8%,4
Oc1ccc(-c2cnns2)c(O)c1,1,-3,14,1.2,1.3%,-3
Nc1nc(SCC(=O)N2CCCCC2)[nH]c(=O)c1NC(=O)c1cccs1,10,6,-2.0,-0.4,0.4%,8
C[C@@H]1CCCCO[C@@H](CN(C)Cc2ccccc2)[C@@H](C)CN([C@H](C)CO)C(=O)c2cc(N(C)C)ccc2O1,-10,-2,-2.3,-0.7,-0.5%,1
CCOC(=O)c1cc(OC(=O)c2cccc(F)c2)n(-c2ccccc2)n1,.,.,.,2.5,0.4%,-16
O=S(=O)(c1cc(Cl)cc(Cl)c1O)N1CCC2(CC1)OCCO2,5,-21,-2.1,-0.5,0.2%,-9
COc1cc(/C=N/NC(=O)c2ccc(C)nc2)cc([N+](=O)[O-])c1O,-12,-4,-4.0,-0.4,-0.3%,10

# Reformatted with each value named: 4 of the compounds above.
SMILES: Oc1ccc(-c2cnns2)c(O)c1
  Six1-Eya2 inh: 1; CtBP-E1A inh: -3; D2 agonist: 14; TRPML1 ag: 1.2; PINK1 modulator: 1.3%; TRPML1 inh: -3

SMILES: Nc1nc(SCC(=O)N2CCCCC2)[nH]c(=O)c1NC(=O)c1cccs1
  Six1-Eya2 inh: 10; CtBP-E1A inh: 6; D2 agonist: -2.0; TRPML1 ag: -0.4; PINK1 modulator: 0.4%; TRPML1 inh: 8

SMILES: C[C@@H]1CCCCO[C@@H](CN(C)Cc2ccccc2)[C@@H](C)CN([C@H](C)CO)C(=O)c2cc(N(C)C)ccc2O1
  Six1-Eya2 inh: -10; CtBP-E1A inh: -2; D2 agonist: -2.3; TRPML1 ag: -0.7; PINK1 modulator: -0.5%; TRPML1 inh: 1

SMILES: CCOC(=O)c1cc(OC(=O)c2cccc(F)c2)n(-c2ccccc2)n1
  Six1-Eya2 inh: .; CtBP-E1A inh: .; D2 agonist: .; TRPML1 ag: 2.5; PINK1 modulator: 0.4%; TRPML1 inh: -16
